From PubChem
RecA splice inh: blocks M. tuberculosis RecA intein splicing; cell-free RecA intein splicing, fluorescence; inhibition, %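 (about 9 µM by stock and volumes)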; hit rate 0.75% among 290,000; in the data active means inhibition above about 30%; inconclusive means no clear call, values can overlap the other calls;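 further: 0% = vehicle wells and 100% = reference inhibitor control wells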
Target sequence (P9WHJ3 whole entry, looked up, canonical isoform): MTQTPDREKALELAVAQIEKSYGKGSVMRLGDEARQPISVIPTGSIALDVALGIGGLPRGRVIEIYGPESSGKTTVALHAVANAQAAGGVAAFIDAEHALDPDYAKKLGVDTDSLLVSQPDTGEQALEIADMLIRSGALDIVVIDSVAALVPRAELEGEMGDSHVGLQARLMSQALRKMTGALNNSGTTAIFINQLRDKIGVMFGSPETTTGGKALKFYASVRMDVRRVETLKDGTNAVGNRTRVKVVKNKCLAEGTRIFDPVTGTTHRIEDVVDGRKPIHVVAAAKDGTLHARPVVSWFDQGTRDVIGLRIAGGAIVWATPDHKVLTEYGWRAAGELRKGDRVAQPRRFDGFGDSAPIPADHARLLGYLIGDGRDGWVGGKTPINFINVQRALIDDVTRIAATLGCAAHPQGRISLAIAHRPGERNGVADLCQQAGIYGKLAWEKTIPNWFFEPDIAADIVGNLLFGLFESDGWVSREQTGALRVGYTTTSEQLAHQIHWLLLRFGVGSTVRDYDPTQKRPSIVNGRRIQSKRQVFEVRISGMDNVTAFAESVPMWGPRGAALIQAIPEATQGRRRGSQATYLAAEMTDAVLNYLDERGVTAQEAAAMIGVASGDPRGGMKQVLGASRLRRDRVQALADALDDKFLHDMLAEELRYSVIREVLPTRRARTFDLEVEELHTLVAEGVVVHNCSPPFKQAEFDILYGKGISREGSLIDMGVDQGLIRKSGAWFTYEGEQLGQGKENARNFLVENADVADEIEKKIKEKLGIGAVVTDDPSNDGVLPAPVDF
Mtb growth: M. tuberculosis H37Rv growth inhibitors, H37Rv strain (AID 1626). M. tuberculosis H37Rv growth inhibition; higher % means a stronger effect. hit rate 0.95% among 220,000. inhibition, % at 10 µM; hits with a dose series show IC50 in µM;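 active means confirmed in a dose series; inconclusive means inhibition above 80% but not taken into the dose series; inactive means below 80% or under 30% at every dose of the series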;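 further: bacteria incubated seven days before Alamar blue readout; 0% = bacteria only wells and 100% = bacteria with antibiotic wells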
YopH inh: inhibitors of Yersinia enterocolitica YopH tyrosine phosphatase; fluorescence Ex485/Em525; inhibition, %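 (about 10 µM by stock and volumes)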; hit rate 0.16% among 140,000;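 active means inhibition of 50% or more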;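 further: controls were vehicle for no effect and minimum signal wells for full effect; inactives centre near -20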
Arbovirus inh: arbovirus infection inhibition; arbovirus infection cell-based antiviral screen; inhibition, % at 10 µM; hit rate 0.37% among 200,000;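 active means inhibition from about 30%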;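 further: bluetongue infection of BSR cells; cell survival read as ATP light after 72 h; 0% = infected wells without compound and 100% = uninfected wells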
Mtb bLac sens: beta-lactam sensitization of Mtb H37Rv | AID 434955 | inhibition, % at 25 µM | M. tuberculosis H37Rv growth with meropenem, percent inhibition; hits of this screen are not shown here | hit rate 0.27% among 330,000;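 active means about 74% or more and at least 40 points above the plate without the antibiotic, then above 30% in a dose series; inconclusive means first-round hits that could not be retested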;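 further: growth measured after seven days incubation then overnight dye step; 0% = bacteria only wells and 100% = bacteria with antibiotic; twin plates without the antibiotic show which effects depend on it; some results filed as inactive read as strong as hits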
Arbovirus inh repeat: also measured in Arbovirus inh; calls as there; inhibition, %; measured here: 10K subset replicate screen; many hits read low in the repeat;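 first of two repeat runs on a subset; 0% = infected and 100% = uninfected wells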
The depositor's hits bear a star; ? = inconclusive; / = no result given. This is a subset (hit frequency here may not be typical).

SMILES | RecA splice inh | Mtb growth | YopH inh | Arbovirus inh | Mtb bLac sens | others
O=C(O)CC(c1ccccc1)n1cccc1 (stereo unspecified) | 3.0 | / | -53 | 13 | -9
Cc1ccc(-n2nc3c(c2NC(=O)c2ccco2)CS(=O)(=O)C3)cc1C | -1.1 | / | / | / | -5
CS(=O)(=O)N1CCC(CO)(Cc2ccccc2C(F)(F)F)CC1 | 0.6 | 3% | / | -2 | 1
COc1ccc(C)cc1Nc1c2c(nc3ccccc13)CCC2 | 4.9 | / | / | / | -3
CCOC(=O)c1ccc(NC(=O)CC2C(=O)N(c3ccccc3)C(=O)N2CCCOC)cc1 (stereo unspecified) | 1.2 | 2% | -16 | 3 | 1
CNC(=O)C1CC(=O)N/C(=N/N=C(\C)c2cccs2)S1 (stereo unspecified) | 0.4 | -2% | -23 | 2 | -10
O=C(C1=C[C@H](c2csc3ccccc23)C[C@H](OCc2ccc(CO)cc2)O1)N1CCCCCCC1 | 12 | -5% | / | / | -12
Cc1ccc(OCC(O)CN2CCN(c3ccc(C)cc3)CC2)cc1 (stereo unspecified) | -1.2 | / | / | / | 2
COc1cc(N/N=C(\C)c2ccc(O)c(C)c2)nc(-c2ccccc2)n1 | 4.8 | 60% | / | -36 | -15
CCC(=O)OC1(Cc2ccc(CC)cc2)CC(C)N(C)CC1C (stereo unspecified) | -0.4 | 1% | / | / | -4
CCn1c2ccccc2c2nnc(SCCN3CCOCC3)nc21 | -0.8 | / | / | / | -4
Clc1ccc(C[n+]2cc(-c3ccc(Cl)cc3)n3c2CCC3)cc1 | 2.0 | 2% | / | / | 3
Cc1ccc(NC(=S)N2CCN(c3ccccn3)CC2)cc1C | -1.1 | / | / | / | 1
Cc1cccc(N2CCN(C(=O)C(Cc3ccccc3)n3cccc3)CC2)c1C (stereo unspecified) | 7.2 | 6% | -32 | -24 | 2
Cc1cccc2cn[nH]c12 | -0.1 | 3% | / | 3 | 0
CC(C)c1ccccc1NC1=NCCCS1 | 0.6 | / | / | / | -5
COc1cccc(OC)c1C(=O)Nc1ccc(C(=O)NCc2ccccc2)cc1 | 0.3 | / | / | / | ?
COc1cccc(NC(=S)Nc2cccnc2)c1 | -1.1 | -5% | -8 | 2 | -1
CCOc1ccc(C2C(C(=O)c3ccc(C)o3)=C(O)C(=O)N2c2cc(C)on2)cc1OC (stereo unspecified) | 1.0 | / | / | / | 0
CNC(=O)Nc1ccc2snnc2c1 | 0.5 | 5% | 2 | -2 | 8

Copied from the results shown (2 entries):
SMILES | RecA splice inh | Mtb growth | YopH inh | Arbovirus inh | Mtb bLac sens | others
O=C(O)CC(c1ccccc1)n1cccc1 (stereo unspecified) | 3.0 | / | -53 | 13 | -9
Cc1ccc(-n2nc3c(c2NC(=O)c2ccco2)CS(=O)(=O)C3)cc1C | -1.1 | / | / | / | -5

The listing continues.
SMILES | RecA splice inh | Mtb growth | YopH inh | Arbovirus inh | Mtb bLac sens | others
O=C(CSc1nc2ccccc2o1)NCc1n[nH]c(=O)c2ccccc12 | 4.2 | / | -34 | 2 | -10
CCc1ccc(NC2=NC(C(=O)c3ccccc3)CC(=O)N2)cc1 (stereo unspecified) | -1.1 | 0% | 11 | 10 | 0
O=C(CCc1ccccc1)NNC(=O)Nc1ccccc1 | -3.5 | -18% | / | -3 | 1
C(=C\c1cc(/C=C/c2ccccc2)ncn1)/c1ccccc1 | 2.2 | 1% | -171 | -7 | 7
CC(C)OC1(c2ccccc2)OC(=O)c2ccccc21 (stereo unspecified) | 7.0 | -2% | / | / | -7
Cc1ccc(C)n1NC(=O)c1ccco1 | 1.6 | -1% | -21 | -2 | -12
O=C(CC(=O)N/N=C/c1ccc(Cl)cc1Cl)NCc1ccccc1 | -0.9 | 3% | -15 | -16 | 33
COc1ccc2cc(C)c(SCC(=O)Nc3cc(C)on3)nc2c1 | 0.9 | -2% | -31 | -4 | 9
COc1ccccc1N1CCN(CC(O)COc2ccc3c(C)cc(=O)oc3c2)CC1 (stereo unspecified) | 0.9 | 5% | 16 | 7 | 5 | Arbovirus inh repeat=-2
COc1cc(OC)cc(C(=O)NCC(=O)OCC(=O)/C=C2/N(C)c3ccccc3C2(C)C)c1 | -1.2 | 8% | / | 11 | -9
CN1C2C=C3C(C#N)=C(N)C(C#N)(C#N)[C@@H](c4ccsc4)[C@@H]3C1CC2 (stereo partly specified) | -0.6 | 3% | -37 | 3 | -4
OCCNc1nc2ccc(Cl)cc2[nH]1 | -0.4 | -1% | -11 | 3 | -8
Cc1ccc2c(C)[nH]c(=O)cc2c1 | -1.6 | -2% | 90* | 26 | -8
Cc1onc(-c2ccccc2)c1C(=O)N1CCN(S(=O)(=O)c2ccc(OC(F)(F)F)cc2)CC1 | 0.9 | / | / | / | 5
O=C(Cc1c[nH]c2ccccc12)N1CCc2ccccc21 | 1.2 | 5% | -33 | -4 | -4
COc1ccc(OC)c(S(=O)(=O)Nc2cccc3ccccc23)c1 | 4.8 | / | / | / | 3
Cc1cccc(OCCC(=O)Nc2ccc(S(=O)(=O)N3CCCC3)cc2)c1 | -1.0 | 7% | -26 | -3 | 5
CCN1C(=O)[C@H]2[C@@H](c3ccc(-c4ccc5c(c4)OCO5)c(OC)c3)N[C@@](CC(C)C)(C(=O)OC)[C@H]2C1=O | 6.5 | / | / | / | -6
Cc1ccc(S(=O)(=O)N2CCC(C(=O)NC3CC3)CC2)cc1 | -1.8 | / | / | / | -1
COC(=O)c1c(-c2cc(C)ccc2C)csc1NC(=O)C1CC=CCC1C(=O)O (stereo unspecified) | 2.9 | -14% | / | 29 | -4
COc1ccccc1OC(C)C(=O)O (stereo unspecified) | -0.6 | -5% | -45 | 4 | -2
CN(C)CCN(C(=O)c1ccc2ccccc2c1)c1nc2ccc(Br)cc2s1 | 0.7 | / | / | / | -2
O=S(=O)(/C=C/c1ccccc1)N1CCNCC1 | 0.2 | / | / | / | 0
O=C(CCC1COc2ccccc2O1)NCc1ccccc1 (stereo unspecified) | 0.4 | 0% | -17 | 10 | -11
CCOCCn1c(=NC(=O)/C=C/c2ccccc2Cl)sc2cc(NC(C)=O)ccc21 | -3.2 | 0% | -10 | -7 | -2
Cn1nnnc1NCc1ccc(Cl)c(Cl)c1 | 0.8 | -5% | / | -18 | -5
Cn1c(SCC(=O)c2ccc3c(c2)Cc2ccccc2-3)nnc1-c1ccccc1 | 1.6 | 10% | -36 | -11 | 1
CCOc1ccc(N=Cc2ccc3ccccc3c2)cc1 | 1.4 | / | / | / | 96
COc1ccc(C(=O)n2nnc3ccccc32)cc1OC | / | -2% | -29 | 4 | 4
CC(=O)Nc1ccc(S(=O)(=O)NCCN2CCNC2=O)cc1Cl | -0.5 | / | / | / | ?
CCOc1cc(CNCCN2CCOCC2)ccc1OCc1ccccc1Cl | 0.5 | -3% | / | -31 | -3
O=c1cc2c(nn1Cc1ccc(F)cc1)-c1ccccc1CC2 | 7.5 | 6% | / | -5 | 7
CCCCOc1ccc(N2CC(C(=O)NCc3ccco3)CC2=O)cc1 (stereo unspecified) | 0.6 | / | / | / | -11
Cc1ccc(CN2CCNC(=O)C2CC(=O)N(C)C2CCOCC2)cc1 (stereo unspecified) | -1.1 | / | / | / | -9
CC(NC(=O)c1ccccc1Br)c1ccc2c(c1)CCCC2 (stereo unspecified) | -6.8 | 7% | 2 | 8 | -9
CCOC(=O)C1CCN(S(=O)(=O)c2cn(C)c(C)n2)CC1 | 0.8 | / | / | / | 0
Cn1c(=O)c2c(nc(SCC(=O)N3c4ccccc4CCc4ccccc43)n2C)n(C)c1=O | / | -11% | -35 | 5 | /
CC1=CN2C(=NC(=O)CC2(C)C(=O)N(CC(=O)NC2CCCC2)c2ccccc2C)C=C1 (stereo unspecified) | -0.6 | -5% | 4 | 0 | 7
COc1ccc(CC(=O)Nc2cccc(-c3nnc(-c4cccc(C)c4)o3)c2)cc1OC | 1.2 | 9% | -25 | -7 | -6
O=C(O)C1CCN(C(=O)Cc2ccccc2)CC1 | -3.2 | -4% | / | 2 | -5
C/C(=N\NC(=O)CCC(=O)Nc1ccccc1)c1cccs1 | -1.5 | -13% | -27 | -2 | 8
CN(C)S(=O)(=O)c1ccc(C(=O)N2CCC(c3nc4ccccc4o3)CC2)cc1 | 0.6 | -2% | 3 | 6 | -10
COc1ccc(NS(=O)(=O)c2cccc(C(=O)NC3CCC(O)CC3)c2)cc1 (stereo unspecified) | 1.6 | / | / | / | ?
O=C(CSc1ncccc1-c1nc2ccccc2[nH]1)N1CCN(c2ccccc2F)CC1 | 2.8 | 4% | -45 | -6 | 15
O=C(Nc1ccccc1)N1CCN(C2c3ccccc3-c3ccccc32)CC1 | 0.6 | -4% | / | / | -3
Cc1[nH]n(-c2ccccc2)c(=O)c1/C=N/Nc1nncc(-c2ccccc2)n1 | -6.2 | -4% | -31 | -21 | 3
CCC(C)NC(=O)c1c(C)cc(=O)oc1C (stereo unspecified) | 1.8 | 0% | 1 | 12 | 4
O=C(CN1CCc2ccccc21)NCc1ccc2c(c1)OCO2 | -1.8 | 8% | -23 | -7 | 0
O=C(c1ccc(N2CCCC2)c([N+](=O)[O-])c1)N1CCc2ccccc2C1 | 6.0 | / | / | / | -3
Cc1ccc(F)cc1NC(=O)CSCc1nc2sc(C)c(C)c2c(=O)[nH]1 | -1.1 | / | / | / | -10
CC(C)C(NC(=O)c1cccc(S(=O)(=O)N2CCOCC2)c1)C(=O)NCCc1ccccn1 (stereo unspecified) | -1.8 | -3% | 14 | 10 | -10
CCn1nc(C(=O)OCC(=O)N2CCc3ccccc32)c2ccccc2c1=O | 2.1 | -6% | -14 | 4 | -6
Cc1cccc(-n2c(C)cc(/C=N/n3cnnc3)c2C)c1 | 5.6 | 6% | -35 | -19 | 29
C(#CCN1CCOCC1)COCc1ccccc1 | 1.3 | -4% | -13 | -2 | -11
Cc1cc(Cl)ccc1OCC(=O)Nn1c(C)ccc1C | -0.6 | 9% | -1 | -4 | 0
Cc1cc(C)c(S(=O)(=O)Nc2nnc(C)s2)c(C)c1 | -0.8 | -6% | 7 | 3 | -6 | Arbovirus inh repeat=0
CC(C)(C)NC(=O)Cn1cnc([N+](=O)[O-])n1 | -0.2 | -2% | 6 | 7 | 14
COc1cc(/C=C/C(=O)O)cc(S(=O)(=O)Nc2ccc3nc(C)sc3c2)c1OC | 6.7 | 41% | / | / | 63
CCC1C(O)=C(c2ccccn2)C(=N)N1c1ccccc1 (stereo unspecified) | 0.4 | -1% | -31 | 7 | -1
COC(=O)C1=C(c2ccc(S(C)(=O)=O)cc2)C[C@@H]2CC[C@H]1N2C(=O)NCc1cccc2ccccc12 | -0.3 | -3% | / | / | -3
New compounds follow
SMILES | RecA splice inh | Mtb growth | YopH inh | Arbovirus inh | Mtb bLac sens | others
CCc1nnc(SCC(=O)Nc2ccc(C(C)=O)cc2)nc1CC | 4.3 | -8% | / | 1 | -4
O=c1[nH]c(CN2CCNCC2)nc2ccccc12 | -1.7 | 0% | 11 | 4 | -3
COCCNC(=S)N(Cc1cccnc1)Cc1ccc(OC)c(OC)c1 | 1.0 | -10% | -31 | 15 | -1
Cc1sc(NC(=O)C2CCCCC2C(=O)O)c(C(N)=O)c1-c1ccccc1 (stereo unspecified) | -10 | 1% | -31 | 5 | -1
CCOC(=O)c1c(S(=O)(=O)NCC(=O)N2CCN(c3ccc(F)cc3)CC2)c(C)n(C)c1C | -0.1 | / | / | / | -8
Cc1cc(C)cc(NC(=O)C2CCCN2C(=O)Oc2ccccc2)c1 (stereo unspecified) | 0.1 | 1% | -6 | 13 | 7
Cc1ccc(Cn2c(Sc3nccc(C)n3)nc3c2c(=O)[nH]c(=O)n3C)cc1 | -2.2 | -7% | -13 | 3 | -1 | Arbovirus inh repeat=1
N#Cc1cc2cc3ccccc3nc2n2c(=O)c3ccccc3nc12 | -9.7 | 5% | / | 11 | 4
COc1ccc(OC)c(NC(=O)CSc2nnc(CCCO)n2-c2ccccc2)c1 | -0.6 | -10% | -36 | 4 | 2
CCOC(=O)/C(=C\c1ccccc1)NC(=O)c1ccccc1 | 0.3 | 3% | / | / | -2

Fetched one by one from the entries so far:
SMILES | RecA splice inh | Mtb growth | YopH inh | Arbovirus inh | Mtb bLac sens | others
CCc1nnc(SCC(=O)Nc2ccc(C(C)=O)cc2)nc1CC | 4.3 | -8% | / | 1 | -4
COc1ccc(OC)c(NC(=O)CSc2nnc(CCCO)n2-c2ccccc2)c1 | -0.6 | -10% | -36 | 4 | 2
Cc1cc(C)cc(NC(=O)C2CCCN2C(=O)Oc2ccccc2)c1 (stereo unspecified) | 0.1 | 1% | -6 | 13 | 7
CCOC(=O)c1c(S(=O)(=O)NCC(=O)N2CCN(c3ccc(F)cc3)CC2)c(C)n(C)c1C | -0.1 | / | / | / | -8
Cc1sc(NC(=O)C2CCCCC2C(=O)O)c(C(N)=O)c1-c1ccccc1 (stereo unspecified) | -10 | 1% | -31 | 5 | -1
O=c1[nH]c(CN2CCNCC2)nc2ccccc12 | -1.7 | 0% | 11 | 4 | -3
COCCNC(=S)N(Cc1cccnc1)Cc1ccc(OC)c(OC)c1 | 1.0 | -10% | -31 | 15 | -1
